Sa ugtP lethal – growth inhibition of S. aureus ugtP deletion strain; S. aureus RN4220 ugtP deletion, OD600 growth, 16 h; some inactives read as strong as hits; growth inhibition, % (concentration not given with the values); 0.54% of 330,000 active; AID 1259309;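 active = z-score under -3 and OD600 up to 0.15 on both plates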;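 also: plate controls were untreated wells for no effect and antibiotic for full effect; wells of about 80 µL received 100 nL stock; the first replicate is given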
Mtb hypoxia rep – reduces hypoxia-regulated biosensor signal in M. tuberculosis; fluorescence inhibition, % (concentration not given with the values); 0.1% of 300,000 active; AID 1159583; M. tuberculosis hypoxia-regulated fluorescent reporter, fluorescence;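 active = 35 to 45% if threefold the growth effect, above 45% if 1.5-fold the growth effect; inactive = the rest, general growth blockers included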;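 also: wells of about 50 µL received 100 nL stock; 0% = vehicle wells and 100% = reference inhibitor wells; whole bacteria with a GFP reporter of the hypoxia response; strong numbers were not always called active; many hits fall short of the cut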
Autofluor counter – flagged as autofluorescent in microsphere protease counterscreen | fluorescence intensity (test concentration not listed) | 3.1% of 360,000 active | compound autofluorescence counterscreen, microsphere flow cytometry; stronger effect = higher value;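 active = at least 3 SD above the mean of all compounds, about 16000 in these data; inconclusive = too few beads counted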;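 also: 100 nL of 1 mM stock went into each well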
BJeLR lethal – BJeLR cell viability loss; BJeLR (HRASV12) viability, CellTiter-Glo ATP luminescence, 48 h; reference of the scale not given here; inhibition, % (test concentration not listed); 0.17% of 300,000 active; AID 1554;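 active = replicate mean above 50%; inconclusive = above 50% but judged a plate artefact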;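 also: 50 nL library stock added to about 25 µL; numbers are from one replicate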
PrP UTR inh – inhibition of PrP 5' UTR reporter expression; cell-based PrP 5' UTR mRNA reporter, plate reader; inhibition, % (concentration not given with the values); 0.35% of 340,000 active;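 active = every replicate at 50% or more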;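 also: 0 = median of the neutral control wells; tested in H4 reporter cells; numbers are from one replicate; inactives centre near -14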
RN4220 kill – S. aureus RN4220 growth inhibition. OD600, 16 h. inhibition, % (test concentration not listed). 0.33% of 330,000 active. AID 1259311;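 active = z-score of -3 or lower and OD600 up to 0.18 on both plates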;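 also: plate controls were untreated cells for no effect and reference antibiotic for full effect; stock transfer was 100 nL into about 80 µL; one replicate is shown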
Mtb hypoxia rep growth – recorded beside Mtb hypoxia rep, whose call it bears; growth inhibition, %; measured here: M. tuberculosis growth (absorbance);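 0% = vehicle and 100% = reference antibiotic; read after six days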
Starred values were filed as active, the others as inactive; ? = inconclusive; / = not tested or not shown; & = joins results of further samples.

Compound,Sa ugtP lethal,Mtb hypoxia rep,Mtb hypoxia rep growth,Autofluor counter,BJeLR lethal,PrP UTR inh,RN4220 kill
O=c1[nH]c(/C(Cl)=C/c2cccc(F)c2)nc2cc(C(F)(F)F)ccc12,3,3,2,3118,7,-32,2.6
CC(C)(C)C1(C)OC(C(=O)NC2CCCCC2)C(C(=O)NC2CCCCC2)O1 (configuration not stated),1,5,1,11323,-4,/,-0.1
O=C(c1ccco1)N1CCN(c2ncnc3c2nnn3Cc2ccccc2Cl)CC1,-1,11,9,3118,6,-8,-2.4
CC(C)c1ccc(NC(=O)C2CCCN(S(=O)(=O)c3cnc[nH]3)C2)cc1 (configuration not stated),-3,/,/,5645,8,-3,6.9
Cc1nc(-c2ccccc2)nc(Cl)c1Cl,4,8,1,4517,4,-29,12
Cc1onc(-c2ccccc2)c1C(=O)NN=Cc1cc(Br)c(Br)o1,-4,-2,-2,/,/,/,2.8
Cn1c(N/N=C/c2ccccc2)nc2sc3c(c2c1=O)CCC3,/,/,/,2374,0,-35,/
CCC1(CC)Cc2ccccc2-c2nc(-c3ccccc3)oc(=O)c21,57,/,/,2422,-1,-27,-3.2
CCCCC(=O)N/N=C/c1c(O)n(Cc2ccc(F)cc2)c(=O)[nH]c1=O,8,8,4,3210,-2,-17,3.2
CC1(C)CC2CC(C)(CN2S(=O)(=O)c2ccc(C(=O)Nc3cc(S(=O)(=O)N4CCOCC4)ccc3Cl)cc2)C1 (configuration not stated),-6,0,5,2206,3,7,5.8
C=CCN1C(=O)CSC1=NS(=O)(=O)c1ccc(Cl)cc1,6,-1,-5,/,/,/,5.0
COc1ccc(/C(C)=N/NC(=O)CNC(=O)Cc2ccccc2)c(OC)c1,/,/,/,3753,-3,-8,/
Cc1nc([N+](=O)[O-])cn1CC(=O)c1ccc(Cl)cc1,9,-1,-6,3030,-2,-18,-0.1
COCCNCCCCOc1c(Cl)cc(C)cc1Br,-8,12,2,20464*,6,-21,3.2
COc1ccccc1N1CCN(CC(=O)Nc2c(C)n(C)n(-c3ccccc3)c2=O)CC1,17,14,9,2694,10,-28,4.2
C/C(Cl)=C/Cn1c(NCCN(C)C)nc2c1c(=O)n(C)c(=O)n2C,-1,/,/,4403,3,-8,-1.4
CCn1ccnc1CN(C)Cc1nc(-c2ccc(C(=O)OC)cc2)no1,4,7,3,4971,1,-30,9.8
O=C1C2N=NN(CC(=O)N3N=C(c4ccccc4)CC3c3ccc([N+](=O)[O-])cc3)C2C(=O)N1c1ccccc1 (configuration not stated),-6,3,15,/,7,/,1.3
CC1(C)NC(C)(C)c2nonc2C1=NO,-6,8,10,/,/,/,-2.3
Clc1ccc(-c2nnc(SCc3cn4ccsc4n3)n2CC2CCCO2)cc1 (configuration not stated),8,/,/,3249,5,-11,4.0

A portion of the results above, for reference:
Compound,Sa ugtP lethal,Mtb hypoxia rep,Mtb hypoxia rep growth,Autofluor counter,BJeLR lethal,PrP UTR inh,RN4220 kill
CCCCC(=O)N/N=C/c1c(O)n(Cc2ccc(F)cc2)c(=O)[nH]c1=O,8,8,4,3210,-2,-17,3.2
CC1(C)CC2CC(C)(CN2S(=O)(=O)c2ccc(C(=O)Nc3cc(S(=O)(=O)N4CCOCC4)ccc3Cl)cc2)C1 (configuration not stated),-6,0,5,2206,3,7,5.8

(more compounds)
Compound,Sa ugtP lethal,Mtb hypoxia rep,Mtb hypoxia rep growth,Autofluor counter,BJeLR lethal,PrP UTR inh,RN4220 kill
COc1ccc(NC(=O)Cc2cccs2)cc1S(=O)(=O)N1CCCCC1,1,-1,10,3636,/,-16,2.4
Cc1ccc(S(=O)(=O)NCCC(=O)N2CC(C)OC(C)C2)cc1C (configuration not stated),7,11,2,4420,-3,-25,4.2
CCOC(=O)C1=C(C)OC(N)=C(C#N)C12C(=O)Nc1ccc(C)cc12 (configuration not stated),8,14,6,5766,/,-13,34
CCc1cccc(NC(=O)CCS(=O)(=O)c2ccc(Br)cc2)c1,-1,10,9,4027,1,-3,6.7
Cc1cccc(S(=O)(=O)N2CCCc3ccccc32)c1,12,10,8,3607,10,26,9.1
NN=C1c2ccccc2C(=O)C1C(=O)C(c1ccccc1)c1ccccc1 (configuration not stated),17,15,10,9250,/,-10,-3.6
CC(=O)NC(CC(=O)Nc1ccc(S(=O)(=O)N2CCCC2)cc1)c1ccccc1 (configuration not stated),-4,-3,6,3842,6,-21,0.2
CCC(=O)Nc1ccc2nc(C3CC3)n(Cc3ccc(C(C)(C)C)cc3)c(=O)c2c1,4,-1,-4,4645,7,-58,3.0
Cc1c(CCC(=O)NCCCN2CCCC2=O)c(=O)oc2c(C)c(O)ccc12,-9,/,/,5476,0,-26,4.4
Brc1ccc(-c2nnc(-c3cccnc3)o2)cc1,-3,4,1,4028,6,-92,3.5
CC(CN1CCOCC1)C(C#N)(c1ccccc1)c1ccccc1 (configuration not stated),2&-4,25&-1,28&9,4339,/,-20,3.8&1.9
Cc1onc(-c2c(F)cccc2Cl)c1C(=O)NNC(=O)C1CCN(Cc2ccccc2)CC1,6,1,9,4347,2,-13,6.1
Cn1ccnc1Sc1ccc(C=NNC(=O)c2ccccc2O)cc1[N+](=O)[O-],1,9,4,/,/,/,0.6
C=CCn1c(P(=O)(O)c2ccccc2)nc2ccccc21,8,3,6,3661,-21,-17,3.4
O=C(O)C1Cc2ccccc2CN1C(=O)CCl (configuration not stated),8,14,4,4842,5,-13,4.6
NC(=O)C1CCCN(C(=O)NC2CCCCC2)C1 (configuration not stated),5,/,/,2483,-1,-27,1.7
Cc1nc(CNC(=O)C2CCC(=O)N(Cc3cccc(F)c3)C2)sc1C (configuration not stated),8,3,-8,4264,8,-17,4.4
Cc1cc2cc(CN(Cc3cccs3)C(c3nnnn3C(C)(C)C)C(C)C)c3nnnn3c2cc1C (configuration not stated),2,-1,-1,3226,0,-15,-12
O=S(=O)(Nc1ccc2c(c1)OCCO2)c1cccc2nsnc12,0,/,/,2949,6,22,2.9
CC[C@H](C)[C@H](NC(N)=O)C(=O)OCC(=O)NCc1ccc(Cl)cc1,-7,1,3,3735,0,-13,-1.9

Looked up by structure from above:
Compound,Sa ugtP lethal,Mtb hypoxia rep,Mtb hypoxia rep growth,Autofluor counter,BJeLR lethal,PrP UTR inh,RN4220 kill
C/C(Cl)=C/Cn1c(NCCN(C)C)nc2c1c(=O)n(C)c(=O)n2C,-1,/,/,4403,3,-8,-1.4
O=S(=O)(Nc1ccc2c(c1)OCCO2)c1cccc2nsnc12,0,/,/,2949,6,22,2.9

(cont.)
Compound,Sa ugtP lethal,Mtb hypoxia rep,Mtb hypoxia rep growth,Autofluor counter,BJeLR lethal,PrP UTR inh,RN4220 kill
O=[N+]([O-])c1cc(-c2csc(NCCc3nc4cc(Cl)c(N5CCCCC5)cc4n3CCCO)n2)ccc1Cl,4,2,9,3446,-7,-10,-9.5
CCN(CC(=O)Nc1c(F)cccc1F)C(=O)c1ccc(C#N)cc1,4,12,-2,3577,2,-4,5.8
O=C(Nc1ccc(Cl)cc1)Nc1cc(S(=O)(=O)N2CCOCC2)ccc1N1CCCC1,-5,8,-2,2501,-6,-22,-1.0
CCOc1ccccc1NCc1cc(=O)oc2cc(C)c(O)cc12,4,2,6,3533,0,-5,3.7
O=C(NN1CCCCC1)c1cccc2ccccc12,3,-7,-10,4448,8,-42,1.0
Cc1ccc(C(=O)N/C(=C\c2ccc(-c3ccc(Cl)cc3)o2)C(=O)NCCCN(C)C)cc1,-16,15,7,3417,25,-22,-3.0
Cc1cc(S(=O)(=O)Nc2ccc(C(=O)N3CCN(C(=O)c4ccco4)CC3)cc2)ccc1F,4,/,/,2984,7,-21,3.4
CC(/C=C/c1ccco1)=N\NC(=O)COc1ccc(C)c(C)c1,/,/,/,5468,-3,-19,/
COc1cc(-c2ccc(NC(=O)NC3CC3)c(OC)c2)ccc1NC(=O)NC1CC1,-3,7,7,/,19,/,2.5
CC1=C(C(=O)OC(C)C)C(c2ccccc2)NC(=S)N1C (configuration not stated),0,1,11,2618,0,-28,3.0
Cc1noc(C)c1COc1ccc(C(=O)NCCc2ccc(F)cc2)cc1,1,5,6,3744,/,-17,-6.5
COc1ccccc1Oc1nc(-c2ccccc2)cc(C)c1S(C)(=O)=O,0,/,/,2789,4,5,-3.6
O=C1CCCC2=C1C(c1ccc(Cl)cc1)n1c(s/c(=C\c3ccc4ccncc4c3)c1=O)=N2 (configuration not stated),/,/,/,3020,-1,-10,/
CCC(=O)NC(NC(=S)Nc1ccc(S(N)(=O)=O)cc1)C(Cl)(Cl)Cl (configuration not stated),-1,2,-7,8591,-4,-27,1.5
CCCn1c(=N)n(CC(=O)C(C)(C)C)c2ccccc21,6,/,/,4630,-4,-18,-3.2
FC(F)(F)c1ccc(Cl)c(NC(=S)N/N=C/c2ccccc2C(F)(F)F)c1,/,/,/,1901,-12,-6,/
Cc1csc(Sc2ccc(C(=O)OCC(=O)Nc3ccc(OC(F)(F)F)cc3)cc2[N+](=O)[O-])n1,-5,10,4,2113,-8,-20,4.3
COc1ccccc1-c1sc2ccccc2c1C#Cc1ccc(N(C)C)cc1,5,-1,4,2807,/,-14,-4.5
Cc1ccc(NC(=O)COC(=O)Cc2ccc(Br)cc2)cc1S(=O)(=O)N1CCOCC1,1,5,-2,3744,/,-36,2.8
NC(=O)CSc1nc2c(sc3ccccc32)c(=O)n1CCCN1CCOCC1,-2,4,6,8341,7,-6,0.6
Cc1ccc(NC(=O)C2CCCN2C(=O)NC2CCCCC2)cc1C (configuration not stated),2,6,15,4973,/,-6,0.9
Cc1noc(NS(=O)(=O)c2ccc(NC(=O)c3ccc(Br)o3)cc2)c1C,-1,13,22,2545,-3,-4,9.6
CCCCCCCCSc1nnc(CSc2nc3nc(C)cc(C)n3n2)o1,16,17,20,10449,-4,-24,2.0
Nc1c(Cl)cc(-c2csc(N3CCCC3c3nc4cc(Cl)c(Cl)cc4n3CCOCCO)n2)cc1Cl (configuration not stated),-33,-4,8,3333,6,-7,-8.1
CN(C)c1ccc(C(=NO)C(F)(F)F)cc1,1,-2,-1,/,/,/,19
Cc1ccc(CSc2nc3[nH]ncc3c(=O)[nH]2)cc1,7,-2,1,1903,-3,-24,0.9
CCOC(=O)CNC(c1ccccc1)c1cc(Br)ccc1NC(C)=O (configuration not stated),-2,0,-2,2606,8,0,3.6
COc1ccc(C2C3=C(CCCC3=O)Nc3nc(C(F)(F)F)nn32)cc1OC (configuration not stated),-4,15,15,3120,-1,-21,-13
Cc1c(NC(=O)CN2CCN(c3cccc(Cl)c3)CC2)c(=O)n(-c2ccccc2)n1C,2,-6,6,3313,-1,-26,-4.0
CC(C)Cc1nc(N2CCOCC2)c(C#N)c2c1CCC2,14,2,1,5356,5,-17,4.6
COC(=O)c1c(C)[nH]c(C)c1-c1ccc(C)cc1,2,6,7,3189,-10,-7,6.9
CCOC(=O)N1CCN(C(=O)CSC2=NS(=O)(=O)c3ccccc3N2)CC1,4,12,3,?,9,-23,2.0
CCCCNC(=O)CC(C(=O)N1CCc2ccccc21)n1ccnc1 (configuration not stated),8,8,1,8295,-8,9,2.2
CC(Sc1n[nH]c(=O)n1Cc1ccccc1)C(=O)NC1CCCCC1C (configuration not stated),-2,1,4,?,-20,-9,0.5
O=C(NC1CCCC1)c1cc(-c2cccs2)on1,13,21,17,10952,5,/,6.0
Cc1cc(=O)oc2c3c(cc(OCC(=O)N[C@@H](C)C(=O)O)c12)OC(C)(C)CC3,13,5,0,3280,-8,-9,4.1
CCOC(=O)CC1C(=O)NCCN1C(=O)COc1ccc(Br)cc1C (configuration not stated),-1,/,/,2778,1,-16,3.3
OC[C@H]1OC(O)C[C@@H](O)[C@@H]1O (some centres not stated),/,/,/,4412,-9,-17,/
Cc1cc(C)n(-c2ccc(C(=O)OCC(=O)Nc3ccc([N+](=O)[O-])cc3)cc2)n1,1,17,6,2495,-4,-13,3.8
O=c1[nH]c(Cc2ccccc2)nc2scc(-c3ccccc3)c12,-13,/,/,4796,0,-22,-3.3
COc1ccc(/C=C/C(=O)c2c(C)cc(C)[nH]c2=O)c2ccccc12,3,9,3,3390,-1,-24,3.8
COc1ccc(/C=C/C2=NNC(=O)CC2)cc1,10,8,-2,2341,10,-1,6.0
